Calb FLC – C. albicans growth inhibition with fluconazole, primary screen, CaCi-2 strain, Alamar Blue fluorescence. C. albicans CaCi-2 (fluconazole-resistant clinical isolate) + fluconazole, 48 h. AID 1979, 2009. 300,000 tested, 0.57% active. growth inhibition, % (no concentration beside the values);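 active = most replicates above 75%; inconclusive = exactly half above 75%; inactive = most below 75%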;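 note: all wells also contain fluconazole at 8 µg/ml as a sub-toxic cotreatment; 0% = median of DMSO wells and 100% = median of geldanamycin control wells; wells of about 8 µL received 7.5 nL stock; the first replicate is given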
RanGTP-Impb inh – inhibitors of RanGTP-importin-beta interaction, primary screen, biochemical, FRET, CFP-Ran, YFP-importin-beta, homogeneous | Ran GTPase (GTP-bound) - importin-beta complex | cell-free CFP-Ran/YFP-importin-beta FRET ratio | inhibition, % (concentration not given with the values) | 300,000 tested, 1.1% active | AID 2216, 2009;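 active = most replicates above 15%; inconclusive = exactly half above 15%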;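 note: 0% = DMSO wells and 100% = Ran loaded with GDP instead of GTP; wells of about 40 µL received 100 nL stock; the first replicate is given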
MLL AF4-AF9 inh – inhibitors of AF4 peptide binding to AF9, primary screen, biochemical, AlphaScreen, biotin-AF4 peptide, FLAG-AF9, single point; Protein AF-9 (Homo sapiens), P42568; inhibition, % at 10 µM; 350,000 tested, 0.47% active;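 active = every replicate reaching a set inhibition limit, whatever the replicate mean, cut at about 25% in these data; inconclusive = mean inhibition reaches that limit but some replicates miss it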;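 note: 0% = plate neutral control median and 100% = total signal loss; the record names both 10 and 1 µM as test concentration; the first replicate is given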
Target sequence (P42568 whole entry, looked up): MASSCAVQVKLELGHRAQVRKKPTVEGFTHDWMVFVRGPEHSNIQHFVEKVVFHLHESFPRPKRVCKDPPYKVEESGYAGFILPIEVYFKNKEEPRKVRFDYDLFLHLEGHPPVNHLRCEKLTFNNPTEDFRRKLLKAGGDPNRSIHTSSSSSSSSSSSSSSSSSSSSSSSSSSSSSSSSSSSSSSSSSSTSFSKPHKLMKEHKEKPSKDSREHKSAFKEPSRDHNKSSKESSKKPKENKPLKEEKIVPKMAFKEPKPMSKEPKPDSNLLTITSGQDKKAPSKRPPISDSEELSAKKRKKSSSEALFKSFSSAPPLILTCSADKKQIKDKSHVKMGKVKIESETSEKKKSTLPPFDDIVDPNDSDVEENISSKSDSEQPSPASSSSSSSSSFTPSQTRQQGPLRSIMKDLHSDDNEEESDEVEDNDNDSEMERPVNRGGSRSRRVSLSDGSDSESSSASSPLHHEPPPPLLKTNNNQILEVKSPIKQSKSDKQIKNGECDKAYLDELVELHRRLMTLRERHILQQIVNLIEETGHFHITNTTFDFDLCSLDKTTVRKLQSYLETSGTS
LANA-H2B inh – blockers of LANA interaction with H2A/H2B – biochemical, FP readout, HTS, primary screen; cell-free LANA-H2A/H2B peptide, fluorescence polarization; 320,000 tested, 0.6% active; inhibition, % (concentration not given with the values); in the data active = inhibition mostly above about 10%, no sharp cut-off; inactive = mostly below about 6.7%;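 note: stock transfer was 7.5 nL into about 10 µL; 0% = median of vehicle wells and 100% = median of positive control wells; one replicate is shown; the record names a cut of 25% in any replicate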
T cruzi repl – inhibitors of intracellular T. cruzi growth, primary screen, luminescence, NIH3T3 host cells | T. cruzi beta-gal in NIH3T3, 90 h | inhibition, % (no concentration beside the values) | 300,000 tested, 1.4% active | AID 1885, 2009;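 active = mean inhibition across valid replicates above about 55%, limit read from the data; inconclusive = mean below that limit but half or more replicates reach it; inactive = mean below it, under half of replicates reach it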;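 note: signal also drops with host cell toxicity which is not excluded here; 0% = plate median of DMSO wells and 100% = zero luminescence signal; higher percent means less beta-gal luminescence so fewer parasites; stock transfer was 50 nL into about 50 µL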
A1 inh – caspase 3/7 activation in MEF A1-2A-BIM cells, primary screen, A1 inhibitor project, cell-based, luminescence, HTS; Caspase-Glo 3/7 luminescence, 3 h; percent of clofoctol response, vehicle zero; caspase activation, % (no concentration beside the values); 330,000 tested, 0.066% active; AID 2462, 2010;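 active = over half of replicate activation scores above 10%, or exactly half above 10 with the replicate mean above 10; inconclusive = replicate mean below 10 yet half the replicates above 10; inactive = over half of replicates below 10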;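 note: wells of about 30 µL received 50 nL stock; many hits fall short of the cut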
Vif TR-FRET – inhibitors of Vif binding to APOBEC3G peptide, primary screen, biochemical, TR-FRET, GST-Vif 1-94, biotin-A3G peptide, dose response retest (AID 1117319); Virion infectivity factor (Human immunodeficiency virus type 1 group M subtype B (isolate …; TR-FRET GST-Vif / biotin-A3G peptide binding; higher % means a stronger effect; test concentration not given here; strong numbers were not always called active; inhibition, %, or IC50 in µM where a hit was titrated; 260,000 tested, 0.57% active;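 active = above the screen mean plus three standard deviations and confirmed in dose response; inconclusive = results disagree or hit not tested in dose response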;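 note: Vif residues 1-94 fused to GST binding biotinylated APOBEC3G peptide 110-148; 0% = full assay without inhibitor and 100% = GST in place of GST-Vif; retest series ran down from 100 µM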
Beta cell apopt – inhibitors of cytokine-induced beta cell apoptosis, primary screen, luminescence; AID 435005, 2010; 300,000 tested, 0.8% active; protection from apoptosis, % (concentration not given with the values); INS-1E cytokine-induced death, ATP luminescence, 48 h; percent of positive-control rescue, neutral wells zero;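 active = all replicates at 75% or more, or half of them and the mean; inconclusive = half reach 75% but not the mean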;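 note: 0% = cytokine-treated negative control wells and 100% = positive control rescue; higher means more ATP so stronger rescue from cytokine killing; wells of about 40 µL received 100 nL stock; the first replicate is given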
Starred values were filed as active, the others as inactive; u = inconclusive; x = no result given.

SMILES	Calb FLC	RanGTP-Impb inh	MLL AF4-AF9 inh	LANA-H2B inh	T cruzi repl	A1 inh	Vif TR-FRET	Beta cell apopt
COc1ccc(C(CNC(=O)c2ccc(-c3ccccc3Cl)o2)N2CCOCC2)cc1 (stereo not given)	-2	2.2	2.0	-3.3	-4	1.3	3%	5
COC(=O)c1[nH]nc2c1C(=O)N(Cc1ccccc1)C2=O	-1	4.6	x	-0.8	-9	-0.3	2%	1
COc1ccccc1Oc1ccc(NC(=O)c2ccccc2)cc1	-8	-0.3	-4.0	-0.4	-9	-2.0	-1%	17
O=C(Nc1ccc(F)c(S(=O)(=O)N2CCOCC2)c1)C1CCCCC1	x	x	-2.7	-2.7	x	-0.1	-11%	-3
COC(=O)c1cccc(S(=O)(=O)N2CCCC2)c1	-27	2.0	x	0.4	-9	0.9	28%	x
COCCN(Cc1nc(-c2ccc(C(F)(F)F)cc2)no1)C(C)C	-4	1.8	0.0	0.9	-4	0.2	-9%	-2
O=C(COc1ccc(Cl)cc1)Nc1nc(-c2ccncc2)cs1	9	-1.6	1.0	-0.1	25	0.6	-4%	-8
Cc1ccc(N2C(=O)CSC2c2cccs2)cc1 (stereo not given)	-10	-2.2	x	2.4	-18	-0.2	-2%	-1
N#Cc1cc([N+](=O)[O-])ccc1NC(=O)COC(=O)C12CC3CC(CC(C3)C1)C2	-22	1.3	x	4.0	-13	2.5	7%	-4
COc1cc(OC)c(NC(=O)c2sc3ncn(CC(=O)N4CCOCC4)c(=O)c3c2C)cc1Cl	-3	3.1	-3.6	3.5	22	-0.7	x	-2
Cc1ccc(C(=O)Nc2cc(C)nn2CCC#N)cc1	-7	-3.2	-0.4	3.7	6	1.2	x	-9
Cc1n[nH]c(C)c1Sc1ccccc1[N+](=O)[O-]	-6	6.0	2.4	-3.0	-7	-0.5	-2%	0
COc1ccc(NC(=O)c2cccnc2)c([N+](=O)[O-])c1	13	3.1	-11	-1.9	-13	0.6	x	14
Cc1cc(=O)[nH]c(SCCCOc2ccc3c(c2)CCC3)n1	u	-2.8	x	x	1	x	0%	x
CCn1cc(CN2CCCC(CNS(=O)(=O)c3ccc(OC)cc3)C2)cn1 (stereo not given)	-8	1.2	0.4	x	45	x	1%	x
CC(C)Nc1ccc(C(CC(N)=O)NC(=O)Cc2ccc(Cl)cc2)cc1[N+](=O)[O-] (stereo not given)	5	-6.8	1.4	-1.2	-27	0.3	x	-3
O=C(CNC1CCCCC1)NCC1(c2ccccc2)CCCC1	-8	-5.1	1.1	4.4	6	0.3	-1%	20
CN(C)c1cc[n+](CC(=O)Nc2cccc([N+](=O)[O-])c2)cc1	-10	-3.4	-1.7	1.1	-16	-0.5	x	6
Cc1cc(C(=O)CSc2cccc[n+]2[O-])c(C)n1-c1ccc(OC(F)F)cc1	26	-0.3	10	8.1	-20	1.5	x	9
Cc1cc(C)nc(N2CCCC(C(=O)NCCc3ccccc3F)C2)n1 (stereo not given)	-8	-0.2	-0.5	1.2	9	1.2	-10%	-3
COC(=O)c1cn(C(C)C(=O)NCc2ccco2)c2ccccc12 (stereo not given)	-6	-0.8	x	4.3	2	0.1	8%	-1
COc1cccc(CN2CCNC(=O)C2CC(=O)NCCc2nc(C)c(C)s2)c1OC (stereo not given)	u	4.5	2.1	6.3	7	-0.4	8%	-1
COc1ccc(NC(=O)c2ccc(S(=O)(=O)N3CCOCC3)cc2)c(OC)c1	4	7.2	x	-1.4	-11	0.0	-2%	-3
CC(C)Cn1c(=O)c2c(nc3n2CCCN3Cc2ccccc2)n(C)c1=O	9	-3.5	4.4	1.5	18	0.5	0%	9
COCCN(C(=O)CN1CCc2ccccc21)c1c(N)n(Cc2ccccc2)c(=O)[nH]c1=O	x	x	-0.3	-12	x	-0.3	-9%	-4
CCOC(=O)c1nnc2c(Br)c(-c3ccccc3)nn2c1C	34	-4.2	x	1.1	4	1.0	u	-6
O=c1oc2cc(Oc3ccc(C(F)(F)F)cc3[N+](=O)[O-])ccc2c2c1CCC2	-9	-2.6	-2.2	-2.2	10	0.4	6%	x
Cc1ccc(OCCOCCn2ccnc2)c(Br)c1	-1	-0.1	x	-3.2	37	0.4	5%	0
Cn1c(Cc2cccc3ccccc23)nnc1SCC(=O)N1CCN(c2ccccc2)CC1	-10	2.4	x	2.2	-2	-0.7	1%	0
COc1ccccc1CN1CCCC(N2CCN(c3ccc(F)cc3)CC2)C1 (stereo not given)	2	3.1	8.7	-2.3	57*	-0.6	x	-2
CC1=C(C(=O)N2CCCC(N3CCN(c4ccccc4F)CC3)C2)OCCO1 (stereo not given)	2	-1.8	-1.8	-0.1	-6	0.8	x	7
O=S(=O)(NCc1ccccc1)c1ccc(Br)c2nsnc12	14	-5.3	6.7	-5.8	19	0.0	x	7
Cc1noc(C)c1COc1ccc(C(=O)OCC(=O)NCc2ccccc2Cl)cc1	-6	6.3	-0.3	1.1	-3	-0.3	13%	5
Cc1cccc(CNc2ccc(C(CC(N)=O)NC(=O)Cc3cccc4ccccc34)cc2[N+](=O)[O-])c1 (stereo not given)	5	-3.8	-9.6	2.7	12	0.6	3%	-8
CN(C)c1ccc(-c2nn3c(-c4cccnc4)nnc3s2)cc1	-3	1.6	x	3.1	-13	0.5	x	3
Cc1cc(C)c2nc(N3CCC(C(=O)N4CCN(c5ncccn5)CC4)CC3)sc2c1	2	0.2	x	-1.3	52	1.2	6%	8
CCc1ccc(C2=NN(CCC(=O)NC3CC3)C(=O)CC2)cc1	11	0.9	x	2.8	-7	0.5	-2%	-2
O=C1CCN(Cc2ccccc2)C=C1c1ccc(C(F)(F)F)cc1	x	x	-0.5	x	x	-0.1	-5%	-6
O=C(CN1CCCC1)OCCCc1ccccc1	10	1.4	-2.2	2.8	-9	-0.1	-3%	-3
Clc1ccccc1-c1nc(N/N=C/c2cccnc2)c2ccccc2n1	-3	-1.8	x	-1.4	1	0.0	-8%	6
COc1ccc(N2CCN(C(=O)CCCCCn3c(=O)[nH]c4ccsc4c3=O)CC2)cc1	0	-2.5	0.3	-1.6	-9	0.1	5%	4
c1ccc(OCc2nn3c(-c4n[nH]c5c4CCC5)nnc3s2)cc1	-9	0.1	x	4.5	13	-0.1	0%	x
CC(=O)c1ccc(N(C(=O)c2csnn2)C(C(=O)NC(C)(C)C)c2cccs2)cc1 (stereo not given)	-3	1.6	-0.9	-0.7	-6	4.1	2%	1
CCN(CC)C(=O)CN(c1ccc(Cl)cc1)S(=O)(=O)c1ccccc1	1	4.8	x	-4.2	-2	0.3	2%	1
O=C(O)c1cc(N2CCOCC2)nc2ccccc12	-7	8.0	-3.2	-2.8	-28	1.3	x	-10
CCOc1ccc(OCC)c(NC(=O)c2ccc(CNc3c(N4CCCC4)c(=O)c3=O)cc2)c1	1	4.9	1.2	0.5	6	1.0	x	14
COc1cc(C(=O)OCC2CC(c3ccccc3)=NO2)cc(OC)c1OC (stereo not given)	8	-4.5	-0.7	0.3	2	0.3	-6%	0
COc1ccc(-n2c(C)c([N+](=O)[O-])c3ccc(O)c(CN4CCCCC4)c32)cc1	u	5.4	x	-3.1	7	-0.1	7%	3
COC(=O)[C@@H](NCc1cccc(CN([C@H](C(=O)OC)C(C)C)S(C)(=O)=O)c1)C(C)C	-1	1.4	5.3	-5.2	2	0.6	x	0
Cc1cc(C)c2nc(C(F)(F)F)nc(NCCCN3CCOCC3)c2c1	-14	u	x	0.7	45	0.5	-1%	-5
O=C(/C=C/c1ccco1)Oc1ccc(C(=S)N2CCOCC2)cc1	-6	3.0	2.6	6.4	-26	0.0	4%	-4
Cc1cc(C)c(NC(=O)CNC(=O)c2ccc3c(=O)n4c(nc3c2)CCC4)c(C)c1	x	x	4.1	4.8	x	0.2	-2%	-5
O=C(Nc1ccc(Cc2ccncc2)cc1)C1CCC(N2C(=O)C3C4C=CC(C5CC45)C3C2=O)CC1 (stereo not given)	-7	-2.8	x	-1.2	43	0.1	-8%	21
CC(C)(C)OC(=O)N1CCC[C@H]1c1nnc(SCc2cccc(Cl)c2)o1	-36	-1.4	0.2	-1.1	12	-0.3	-4%	-2
CC1CCCCC1NC(=O)COC(=O)c1cc(=O)c2ccccc2o1 (stereo not given)	-5	-0.3	-3.7	-0.6	6	1.3	3%	-3
Cn1nc(-c2ccccc2)c(N2CCCCC2)cc1=O	0	0.0	0.6	-1.5	-7	0.6	-1%	0
O=C(Nc1nnc(C(F)(F)F)s1)C1COc2ccccc2O1 (stereo not given)	-5	u	x	0.1	-6	-9.6	0%	17
O=C(CN(Cc1ccccc1)S(=O)(=O)c1ccc(F)cc1)NCc1ccccn1	-4	1.6	-1.4	2.6	1	0.5	4%	-4
CSc1c(SCc2ccccc2)cnn(Cc2ccccc2)c1=O	1	-1.3	x	-4.2	4	1.7	x	0
CCOc1[nH]n(-c2ccccc2)c(=O)c1C=Nc1ccccc1	5	-0.1	7.0	-9.8	-4	0.7	-6%	10
The list goes on:
SMILES	Calb FLC	RanGTP-Impb inh	MLL AF4-AF9 inh	LANA-H2B inh	T cruzi repl	A1 inh	Vif TR-FRET	Beta cell apopt
O=c1cc(-c2ccccc2)nc(SCc2ccccc2)[nH]1	-3	-0.9	x	-1.4	-2	0.5	1%	-4
CCCCN(C(=O)C1CSC2(C)CCC(=O)N12)c1c(N)n(CC(C)C)c(=O)[nH]c1=O (stereo not given)	x	x	-1.5	8.5	x	0.7	-14%	0
C/C(=N\NC(=O)c1nnn(-c2nonc2N)c1-c1cccs1)c1ccncc1	-2	4.0	-15	1.0	-9	0.5	x	-14
O=C1[C@H]2[C@@H](c3ccc(F)cc3)N3C(=O)N(c4ccc(Br)cc4)C(=O)[C@@]3(Cc3ccc(Cl)cc3)[C@H]2C(=O)N1C1CCCCC1	19	6.0	-1.6	-6.8	-2	0.4	x	10
Cc1ccc(C(=O)C2=C(O)C(=O)N(CC3CCCO3)C2c2ccccc2F)o1 (stereo not given)	4	0.3	2.2	4.1	-3	-0.4	-5%	x
Cc1cc(N/C=C\c2nnnn2-c2ccc(F)cc2)no1	2	u	x	2.5	-11	0.5	3%	x
c1ccc(Cn2nnnc2C(c2cccnc2)N2CCN(c3ccccc3)CC2)cc1 (stereo not given)	-16	3.3	x	6.2	81*	-1.3	-6%	-5
Cc1ccc(CCN2CCN=C2Nc2ccccc2)cc1	x	x	-4.8	1.8	x	0.2	x	0
CN(C)Cc1c(-c2ccc(Cl)cc2)nc2ccccn12	72	u	2.2	2.3	-5	-4.9	x	3
